PMP22 txn: modulators of PMP22 gene transcription in S16 Schwann cells; S16 Pmp22-F2sN Schwann cells (luciferase reporters placed in the Pmp22 gene), FLuc/NLuc coincidence luminescence, 24 h; Potency, µM (series often up to 57.5 µM), for the others: top-dose activity change, negative = inhibition, actives largely listed as inhibitors; 2% of 43,000 active; active = clear falling dose curves in both reporters; inconclusive = both reporters move, but less clearly or upward; inactive = either reporter flat; the % is the NLuc reporter signal; further: on the % scale 0 is the no-effect control and ±100 the full control effect; some results filed as inactive show a strong effect at the top dose
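qHTS, 1536-well. Cells seeded, compounds added by pin tool, 24 h 37C. Nano-Glo reagent 1 (lysis/FLuc), 10 min RT, read; Stop&Glo, 10 min RT, read NLuc.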
HTT prom inh: inhibits huntingtin promoter activity | AID 1508623 | 0.93% of 48,000 active | Potency, µM (doses to about 57.5 µM), for inactives: at the highest dose activity change, negative = inhibition, usual class: inhibitors | HEK293 HTT promoter firefly luciferase reporter (activity 0% = vehicle and -100% = no light), 24 h; active means well fitted inhibition curve with a large enough effect; inconclusive means small, poorly fitted or top-dose-only effect; inactive means no such curve, though single readings can be large or run the other way; further: nearly all actives have a fitted effect of over 50% in size
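Firefly luciferase signal from promoter-reporter HEK293 cells was scaled between vehicle (0%) and zero RLU (-100%). Compounds were tested at final concentrations of up to 57.5 uM over 24 h at 37 degrees C. PTC124 at 50 uM final served as control inhibitor.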
* = called active by the depositor; ? = inconclusive; . = not tested or not shown; [ ] = dose if it differs, or a comment. Potency means the concentration at half of the fitted maximal effect.

The first 4 compounds, to show the layout:
SMILES	PMP22 txn	HTT prom inh
CC(=O)N1c2ccc(S(=O)(=O)NCC3CCC(C(=O)Nc4cccc(F)c4)CC3)cc2CC1C (stereo unspecified)	?	?
C=CCc1cccc2cc(C(=O)NCCc3c(C)[nH]c4c(C)cccc34)c(=O)oc12	-22%	-2%
O=C(O)CCn1ccc2cc(S(=O)(=O)N3CCCCCC3)ccc21	1%	-13%
CCc1ccccc1NC(=O)CSc1ncc(S(=O)(=O)c2ccccc2)c(N)n1	-18%	?

Main list, from the first entry:
SMILES	PMP22 txn	HTT prom inh
CC(=O)N1c2ccc(S(=O)(=O)NCC3CCC(C(=O)Nc4cccc(F)c4)CC3)cc2CC1C (stereo unspecified)	?	?
C=CCc1cccc2cc(C(=O)NCCc3c(C)[nH]c4c(C)cccc34)c(=O)oc12	-22%	-2%
O=C(O)CCn1ccc2cc(S(=O)(=O)N3CCCCCC3)ccc21	1%	-13%
CCc1ccccc1NC(=O)CSc1ncc(S(=O)(=O)c2ccccc2)c(N)n1	-18%	?
COc1cccc(-n2c(SCc3ccccc3C)nc3c([nH]c4ccccc43)c2=O)c1	?	?
COc1ccc(S(=O)(=O)c2cn(C)c3cc(N4CCCC4)c(F)cc3c2=O)cc1	-14%	-5%
CCc1ccccc1Nc1nn2c(=O)c3ccc(C(=O)NCc4ccccc4Cl)cc3nc2s1	-23%	-34%
COc1ccccc1Nc1cc(C(=O)NCCCN(C)C2CCCCC2)c2ccccc2n1	?	?
Cn1c(C(=O)Nc2ccc(OC(F)(F)F)cc2)cc2c(=O)n3ccccc3nc21	0%	0%
CCOC(=O)CSc1nc(-c2ccc(C)cc2C)cc(-c2ccccc2)c1C#N	10%	-7%
CCn1c(=NC(=O)c2ccc(S(=O)(=O)N3CCCCC3)cc2)sc2cccc(OC)c21	?	?
Cn1c(=O)nc2n(-c3ccc(Br)cc3)c3cccc(Cl)c3cc-2c1=O	0%	-16%
CCc1cccc(C)c1NC(=O)C1CCN(S(=O)(=O)c2cccc3nonc23)CC1	2%	?
c1ccc(N2CCN(Cc3nnc(-c4ccc5c(c4)OCO5)o3)CC2)cc1	-19%	-19%
Cc1ccc(CNC(=O)c2cc(-c3ccc(C)c(C)c3)nc3ccccc23)cc1	?	-9%
COc1ccc(-c2nn3c(-c4ccc(OC)cc4)nnc3c3ccccc23)cc1	3%	0%
Cc1ccc(N2CC(NC(=O)C(=O)c3c[nH]c4ccccc34)CC2=O)cc1 (stereo unspecified)	13%	-26%
CCOc1cccc(CC(=O)N2CCc3c([nH]c4ccccc34)C2c2ccccc2)c1OCC (stereo unspecified)	-26%	?
CCOc1ccccc1NC(=O)C(CC)Sc1nc2ccncc2[nH]1 (stereo unspecified)	2%	-28%
CCc1ccc2c(c1)-c1ccccc1S(=O)(=O)N2CC(=O)N1CCCCC1	-7%	26%
CCOc1ccccc1NC(=O)Cn1c(=O)n(CCC(=O)NCc2ccc3c(c2)OCO3)c(=O)c2ccccc21	-27%	1%
COc1ccc(CNC(=O)c2cc3cccc4c3n2CC(C)S4)cc1OC (stereo unspecified)	-17%	-31%
O=C(NCCc1csc2nc(-c3cccc(F)c3)nn12)c1ccc(Br)o1	?	-9%
Cc1ccc(C)c(NC(=O)CCCn2nc(C)c3sc4ccccc4c3c2=O)c1	3%	-2%
Cc1nc(N2CCCC2)c2c(C(=O)N3CCN(c4ccccc4)CC3)c(C)oc2n1	9%	-4%
CCCCNc1nc2c(S(=O)(=O)c3ccc(C)c(C)c3)nnn2c2ccsc12	?	-24%
COc1ccccc1CN(Cc1c(Cl)cccc1Cl)S(=O)(=O)c1ccc(Br)cc1	?	-13%
Cc1ccc(C)c(CSc2nc(-c3ccccc3F)nc3c2Cc2c(CO)cnc(C)c2O3)c1	?	-11%
Cc1ccc(C(N)=O)cc1Nc1nccc(-c2cn(C(C)C)c3cnccc23)n1	.	?
O=C(OCc1ccccc1Cl)c1ccc(-c2nnn(Cc3ccccc3Cl)n2)cc1	-20%	5%

Rewritten with two lines to a compound: two of the compounds above.
Order of values: PMP22 txn | HTT prom inh
O=C(NCCc1csc2nc(-c3cccc(F)c3)nn12)c1ccc(Br)o1
 : ? | -9%
Cc1ccc(C)c(NC(=O)CCCn2nc(C)c3sc4ccccc4c3c2=O)c1
 : 3% | -2%

New compounds follow
SMILES	PMP22 txn	HTT prom inh
Cc1ccc(S(=O)(=O)c2cn(C)c3cc(N4CCCCC4)c(F)cc3c2=O)cc1	?	-12%
O=C(NCc1ccc2c(c1)OCO2)c1ccc2c(c1)N(Cc1cccc(Cl)c1)C(=O)c1ccccc1S2	37%	-23%
CCc1ccc(NC(=O)c2ccc3c(O)c(S(=O)(=O)c4ccc(Cl)cc4)c(=O)[nH]c3c2)cc1	-2%	8%
Cc1c(-c2nsc(NC(=O)c3ccccc3)n2)nnn1-c1ccc(C(F)(F)F)c(Cl)c1	?	-21%
CCCOc1cccc(C2c3c(oc4ccc(F)cc4c3=O)C(=O)N2CCc2ccc(OC)cc2)c1 (stereo unspecified)	-71%	3%
CCOc1ccc(NC(=O)CC2C(=O)N(c3ccccc3)C(=O)N2CCc2cccs2)cc1 (stereo unspecified)	3%	?
Cc1ccn2c(Nc3ccc(F)cc3)c(-c3ccc(C)o3)nc2c1	6%	-2%
CCOc1ccc(NC(=O)CSc2nnc(-c3ccc(OCC)cc3)o2)cc1	-19%	?
Cc1ccc(S(=O)(=O)CC(=O)Nc2sc3c(c2C#N)CCCC3)cc1	15%	-14%
CCc1ccc(NC(=O)c2cc(C(C)=O)n3ccccc23)cc1	-23%	28%
Cc1ccc(Cn2ccnc2SCC(=O)Nc2nc3ccccc3s2)cc1	-41%	?
Cc1ccc(Cl)cc1Nc1nn2c(=O)c3ccc(C(=O)NCc4ccc(F)cc4)cc3nc2s1	?	-14%
CCOC(=O)C1=C(CN2CCN(c3cccc(Cl)c3)CC2)NC(=O)NC1c1ccc(Cl)cc1 (stereo unspecified)	?	1%
COc1cccc(-c2nc(CS(=O)(=O)CC(=O)NCCc3ccc(OC)c(OC)c3)c(C)o2)c1	0%	?
CC1CCN(c2ncnc3c2cnn3-c2ccc(F)cc2)CC1	17%	26%
Cc1cc(C)cc(NC(=O)CCCN2C(=O)COc3ccc(C)cc32)c1	-29%	?
CC(C)CC(=O)Nc1nnc(S(=O)(=O)N(C)Cc2ccc(Cl)cc2)s1	38%	1%
Cc1cccc(NC(=O)C(Cc2ccccc2)N2Cc3ccccc3C2=O)c1C (stereo unspecified)	2%	-28%
CCOc1ccccc1NC(=O)Cn1c(=O)ccc2cc(S(=O)(=O)N3CCC(C)CC3)ccc21	-22%	-35%
COc1ccccc1OCCn1c(NC(=O)c2ccccc2Cl)nc2ccccc21	-72%	-32%
CCC(C)NC(=O)Cn1c(=O)cc(-c2ccccc2)c2c(C)nn(C)c21 (stereo unspecified)	-8%	-16%
O=C(Nc1nnc(S(=O)(=O)N2CCCCC2)s1)c1ccccc1Br	27%	-18%
COc1ccc(CNC(=O)CCCn2c(=O)c3cccn3c3cccnc32)cc1	?	7%
CCOc1ccc(-n2c(SCc3ccc(C(=O)OC)o3)nc3c([nH]c4ccccc43)c2=O)cc1	?	-15%
O=C(NC1CCCCC1)c1ccc2c(c1)N(Cc1ccc(F)cc1)C(=O)c1ccccc1S2(=O)=O	-9%	-17%
CCn1nnc2cc(C(=O)Nc3ccc(C)c(Cl)c3)ccc21	-26%	51%[activator]
COc1ccccc1CNC(=O)CCCn1c(=O)c2ccccc2n(Cc2ccccc2F)c1=O	?	6%
CCOc1ccc(C2=NC(c3ccncc3)=Nc3ccc(C)cc3N2)cc1OCC	?	-26%
CCOc1cccc(C(=O)N(Cc2ccc(F)cc2)Cc2ccco2)c1	-15%	?
O=C(NCCCc1nc2ccccc2n1Cc1cccc(Cl)c1)c1ccco1	?	-21%
COC(=O)c1ccc2c(=O)n(CCCCCC(=O)NCCc3ccccc3)c(=O)[nH]c2c1	?	3%
Cc1c(Cl)cccc1N1CCn2c1nc1c2c(=O)n(CC(=O)O)c(=O)n1C	-15%	-3%
COc1ccc(C)cc1-n1nnc(C(=O)Nc2cccc(SC)c2)c1C	-55%	-28%
COc1cccc2c1cc1c(=O)n(CC(=O)NCc3ccco3)nc(C)n12	-23%	-15%
CCN(c1ccccc1)S(=O)(=O)c1ccc(-c2cc(C)no2)s1	?	?
COc1ccc(NC(=O)c2oc3ccccc3c2NC(=O)c2cc(C)cc(C)c2)c(OC)c1	-31%	-9%
CCOC(=O)Cn1c(=O)oc2cc(S(=O)(=O)N3CCCC(C)C3)ccc21 (stereo unspecified)	-16%	-21%
COc1ccc(-c2c(C#N)c(SCC(=O)Nc3cccc(Cl)c3)nc(C)c2C(=O)Nc2ccccc2)cc1OC	45%	?
O=C(Cc1ccccc1)NC1CC(=O)N(c2ccc3c(c2)OCCO3)C1 (stereo unspecified)	1%	-6%
CC(Oc1ccccc1F)C(=O)Nc1ccc(-c2nc3ccccc3s2)cc1 (stereo unspecified)	-19%	24%
CC(C)c1ccc(NS(=O)(=O)c2ccc3[nH]cc(C(=O)N4CCCC4)c(=O)c3c2)cc1	-11%	8%
CCC(=O)N1CCc2cc(Br)cc(S(=O)(=O)N3CCC(C(=O)Nc4cccc(C)c4)CC3)c21	?	-19%
COc1ccccc1CNS(=O)(=O)c1ccc2c(c1)CC(C)N2C(C)=O (stereo unspecified)	?	-20%
O=C(Cn1ncc2c3ccccc3n(Cc3cccc(Cl)c3)c2c1=O)NCCCN1CCCCC1	4%	1%
CCN(CCCNC(=O)CN1N=C(c2ccccc2)CCC1=O)c1ccccc1	5%	?
CC(=O)Nc1ccc(NC(=O)C(c2ccccc2)N2Cc3ccccc3C2=O)cc1 (stereo unspecified)	3%	-14%
COc1ccc(NC(=O)Cn2c(=O)n(C(C)C)c(=O)c3oc4ccccc4c32)cc1Cl	-23%	-2%
CCCCNC(=O)c1cn(C)c2ccc(S(=O)(=O)N3CCCC3)cc2c1=O	-14%	-2%
Cc1cccc(OCC(=O)Nc2ccc3c(c2)N(C)C(=O)c2ccccc2S3)c1	?	?
O=C(Nc1ccc(F)cc1)c1ccc(CN2CC(=O)N3CCCCC3C2=O)cc1 (stereo unspecified)	-7%	-22%
(cont.)
SMILES	PMP22 txn	HTT prom inh
O=C(Cc1ccccc1F)N1CCC(c2nc3c(nnn3Cc3cccc(Cl)c3)c(=O)[nH]2)CC1	-12%	-38%
Cc1ccc(C(CC(=O)Nc2ccc(F)c(Cl)c2)N2Cc3ccccc3C2=O)cc1 (stereo unspecified)	-7%	-7%
COc1ccc(CNC(=O)CCS(=O)(=O)c2cc(Br)cc3c2N(C(=O)C2CC2)CC3)cc1	11%	0%
COc1cccc(CNC(=O)c2cc(=O)[nH]c3ccc(S(=O)(=O)N4CCCCC4)cc23)c1	6%	-17%
Cc1cccc(C(=O)NCC(=O)OCc2cc(=O)n3nc(C)sc3n2)c1	-14%	8%
Cc1ccc(CN2CCC(CNC(=O)Nc3cccc(Cl)c3C)C2)cc1 (stereo unspecified)	?	-20%
COc1ccc(Cl)cc1S(=O)(=O)Nc1ccc2[nH]c(=O)[nH]c2c1	-19%	-18%
Cc1nn(C)c2c1c(C(F)(F)F)cc(=O)n2CC(=O)NCc1ccc(OC(C)C)cc1	-9%	-20%
CN(C)C1CCN(C(=O)c2ccc(NC(=O)Nc3nc(N4CCOCC4)nc(N4CCOCC4)n3)cc2)CC1	.	?
CCOc1ccccc1CNC(=O)c1oc2c(c1C)-c1nn(Cc3cccc(Cl)c3)cc1CC2	?	?

2 entries picked at random from those above, as already listed:
SMILES	PMP22 txn	HTT prom inh
Cc1ccc(CN2CCC(CNC(=O)Nc3cccc(Cl)c3C)C2)cc1 (stereo unspecified)	?	-20%
COc1ccc(CNC(=O)CCS(=O)(=O)c2cc(Br)cc3c2N(C(=O)C2CC2)CC3)cc1	11%	0%

(cont.)
SMILES	PMP22 txn	HTT prom inh
Cc1ccc2ncc(C(=O)Nc3cccc(C(F)(F)F)c3)c(=O)n2c1	-7%	-3%
CCCn1c(CCC(=O)Nc2ccccc2OC)nc2cccnc21	-8%	-7%
CCOC(=O)c1ccc(NC(=O)c2noc3c2CCCC3)cc1	-21%	-20%
Cc1[nH]cnc1CN1CCc2c(c3ccccc3n2C)C1=O	.	-5%
COc1cc(C(=O)N(Cc2cccnc2)c2nc3cc(C)c(C)cc3s2)cc(OC)c1OC	0%	-31%
CCn1c(=O)c2cc(C(=O)NCCCN3CCN(c4ccc(F)cc4)CC3)sc2c2ccccc21	?	0%
CCCCN(C)C(=O)CN1C(=O)CCn2nc(-c3cn(C)c4ccccc34)cc21	-4%	-14%

3 structures out of the list, sorted by length of the SMILES, rising.
SMILES	PMP22 txn	HTT prom inh
O=C(NCCc1csc2nc(-c3cccc(F)c3)nn12)c1ccc(Br)o1	?	-9%
Cn1c(=O)nc2n(-c3ccc(Br)cc3)c3cccc(Cl)c3cc-2c1=O	0%	-16%
CCOC(=O)C1=C(CN2CCN(c3cccc(Cl)c3)CC2)NC(=O)NC1c1ccc(Cl)cc1 (stereo unspecified)	?	1%

Source: PubChem BioAssay
